Assay outcomes from PubChem.
D2 PAM: potentiates the human D2 dopamine receptor allosterically. P14416. DiscoveRx D2 beta-arrestin cells, luminescence, 90 min; 100% = 57 uM dopamine signal. potentiation, % (no concentration beside the values). hit rate 0.23% among 360,000. AID 624464; active = potentiation of 50% or more; inconclusive = 30% to 50%; inactive = 30% or less;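 further: compound concentration not given in the record; tested on top of an EC20 dose of dopamine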
Target sequence (P14416 whole entry, looked up): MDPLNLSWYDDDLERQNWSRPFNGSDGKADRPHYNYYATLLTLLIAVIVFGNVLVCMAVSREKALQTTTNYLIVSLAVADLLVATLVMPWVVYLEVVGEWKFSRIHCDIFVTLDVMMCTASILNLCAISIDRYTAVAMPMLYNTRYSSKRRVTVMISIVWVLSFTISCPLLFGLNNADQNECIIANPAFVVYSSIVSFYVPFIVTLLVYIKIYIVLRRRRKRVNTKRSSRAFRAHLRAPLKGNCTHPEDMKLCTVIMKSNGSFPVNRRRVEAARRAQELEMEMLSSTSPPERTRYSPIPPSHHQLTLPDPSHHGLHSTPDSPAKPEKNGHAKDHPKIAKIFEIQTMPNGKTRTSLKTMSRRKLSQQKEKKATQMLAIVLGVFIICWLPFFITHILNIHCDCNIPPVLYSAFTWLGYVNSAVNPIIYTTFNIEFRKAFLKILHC
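PathHunter D2 cells, attached overnight at 37 deg C, received compound in DMSO plus dopamine at EC20 (50 nM final) for 90 min at 37 deg C. Beta-arrestin recruitment was read as luminescence after 1 h with detection reagent at ambient temperature.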
D2 ag: agonists of human D2 dopamine receptor (beta-arrestin); DiscoveRx PathHunter D2 beta-arrestin, luminescence, 90 min; 100% = 57 uM dopamine signal; AID 624465; activation, % (concentration not given with the values); P14416; hit rate 0.084% among 360,000; in the data active = activation above about 40%; inconclusive = about 15% to 40%; inactive = below about 15%; further: compound concentration not given in the record; the text of the record calls up to 30% inactive
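Agonist mode: compounds alone added to overnight-plated D2 PathHunter cells for 90 min at 37 C, with 57 uM final dopamine (EC100) defining full response. Beta-arrestin recruitment detected by chemiluminescent reagent, read after 1 h at ambient temperature.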
Six1-Eya2 blk: Six1/Eya2 interaction inhibition. activity change, % (no concentration beside the values). hit rate 0.56% among 360,000. AlphaScreen GST-Six1/His-Eya2 binding, biochemical; active compounds read low; control for the full effect not named in the record. Q15475+O00167. AID 651725; in the data active = activity change below about -65%; inconclusive = about -30% to -65%; inactive = above about -30%; further: on the % scale 0 is the no-effect control and ±100 the full control effect
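AlphaScreen with GST-Six1 and His-Eya2 (5X mix: 250 nM and 500 nM), glutathione donor and nickel acceptor beads; buffer 50 mM Tris pH 8.0, 300 mM NaCl, 1 mM TCEP; 1 h at 37 C in the dark.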
TRPML1 agonist: agonists of human TRPML1 channel; Q9GZU1; TRPML1-expressing cells, Ca2+ dye fluorescence, FDSS; host cell line not named in the record; reference of the full effect not given here; activation, % (concentration not given with the values); hit rate 0.12% among 410,000; AID 624414; in the data active = activation above about 50%; inconclusive = about 30% to 50%; inactive = below about 30%; further: 0% is about no effect; the text of the record puts the active cut at 80%
Target sequence (Q9GZU1 whole entry, looked up): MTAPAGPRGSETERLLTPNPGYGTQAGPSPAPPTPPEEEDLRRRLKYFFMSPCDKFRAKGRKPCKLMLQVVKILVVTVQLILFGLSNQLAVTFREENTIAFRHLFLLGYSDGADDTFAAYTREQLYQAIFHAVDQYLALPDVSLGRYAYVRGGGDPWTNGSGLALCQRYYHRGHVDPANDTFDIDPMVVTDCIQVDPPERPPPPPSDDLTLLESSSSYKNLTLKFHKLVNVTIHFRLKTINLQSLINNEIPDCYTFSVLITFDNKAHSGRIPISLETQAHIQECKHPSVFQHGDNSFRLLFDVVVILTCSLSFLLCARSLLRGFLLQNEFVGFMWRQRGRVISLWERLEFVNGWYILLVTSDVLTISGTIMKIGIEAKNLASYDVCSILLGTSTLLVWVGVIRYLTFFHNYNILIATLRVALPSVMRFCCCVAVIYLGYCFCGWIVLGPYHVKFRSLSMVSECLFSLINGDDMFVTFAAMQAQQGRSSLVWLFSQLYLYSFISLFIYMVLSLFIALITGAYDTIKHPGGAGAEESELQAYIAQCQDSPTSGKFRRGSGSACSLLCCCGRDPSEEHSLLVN
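Cells: TRPML1-DL, 1X Tet inducer, ~16 h at 37 degrees C/5% CO2. Dye: ABD Ca8 no-wash + quencher, 45-90 min RT. Read: 10 s baseline, compound add, 110 s agonist phase; 54-4 EC80 (4uM final), 110 s antagonist phase.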
PINK1 expr mod: changes PINK1 expression; PINK1 immunofluorescence, high-content cytometry, 24 h; Potency, µM (highest dose often 76.6 µM), for inactives: at the top dose activation (PINK1 increase), most hits filed as activators; hit rate 0.2% among 410,000; active = well fitted activation curve with a large enough effect; inconclusive = small, poorly fitted or top-dose-only effect; inactive = flat fitted curve, though single readings scatter; cell line not stated here;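 further: potency means the concentration at half of the fitted maximal effect; % of control where 0% means no effect; nearly all actives have a fitted effect of over 65% in size; a mitochondrial uncoupler was the plate control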
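Decision-based qHTS: stable cells, 24 h exposure to five compound concentrations, CCCP as control. Fixed cells stained for PINK1 plus nuclear, mitochondrial and cell markers, cytometer read.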
TRPML1 inh: inhibitors of human TRPML1 channel | TRPML1-inducible cells, Ca2+ dye fluorescence, FDSS; active compounds read low; inhibition of EC80 agonist-evoked calcium signal | activity change, negative = inhibition, % (test concentration not listed) | hit rate 0.02% among 390,000 | AID 624415; in the data active means activity change below about -50%; inconclusive means about -30% to -50%; inactive means above about -30%;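 further: stimulus is agonist 54-4 at its EC80 concentration; on the % scale 0 is the no-effect control and ±100 the full control effect; compound concentration not given in the record; the text of the record puts the active cut at -80%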
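Tet-induced TRPML1-DL cells loaded with Ca8 no-wash calcium dye were read kinetically on FDSS. Compound addition was followed by EC80 agonist 54-4 (4 uM final); inhibition was read over 110 s.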
An asterisk follows results filed as active; ? = inconclusive; / = no result given; & = joins results of further samples; [ ] = another dose, or the depositor's remark.

Results follow in this order: D2 PAM	D2 ag	Six1-Eya2 blk	TRPML1 agonist	PINK1 expr mod	TRPML1 inh
- COc1ccccc1C(=O)NCCn1cc(SCC(=O)NCC2CCCO2)c2ccccc21 (stereo unspecified)
  15	3.0	9	0.7	3.5%	1
- CC(C)OC(=O)c1sc2nc3c(cc2c1N)C(=O)CCC3
  -6	-3.7	-1	0.8	-2.3%	20
- C=CC[C@@H](CC(=O)NCCO)C(=O)N[C@H](C)COC(=O)[C@@H](CC=C)CC(=O)OC(C)(C)C
  -25	0.0	0	-0.8	0.4%	12
- O=c1c2cc3ccccc3n2cnn1Cc1ccccc1F
  -2	-2.1	-1	-0.1	5.0%	-8
- O=C(COC(=O)C1=COCCO1)Nc1ccccc1OC(F)F
  -8	-7.7	17	0.5	-0.4%	16
- O=C(NCc1ccncc1)C1=NN(c2ccccc2)C(=O)CC1
  1	0.6	3	0.8	0.7%	23
- CCOC(=O)/C=c1\s/c(=C\c2ccccc2C)c(=O)n1CC(=O)NCc1ccc2c(c1)OCO2
  6	-3.3	-2	1.5	?	15
- Cc1ccc(C)c2sc(NC(=O)c3nc4ccccc4s3)nc12
  -1	-2.7	1	-0.1	0.0%	-16
- CCN1CCN(C(=O)c2ccc(Cl)c(S(=O)(=O)N3CCCCCC3)c2)CC1
  -22	0.0	1	-0.7	-0.1%	9
- Cc1ccc(CN2CCN(c3ncccn3)CC2)c(C)c1
  15	101*	9	-0.1	7.3%	19
- CCOC(=O)C1=C(COC(=O)c2cccnc2Cl)NC(=O)NC1C (stereo unspecified)
  0	-2.9	-7	-0.8	3.0%	2
- Cc1ccc(C)c(SCc2noc(C(=O)NC(C)C)c2C(=O)O)c1
  -39	-0.7	0	-0.9	1.9%	-6
- Cc1ccc(S(=O)(=O)N2[C@@H](c3ccc(C(C)(C)C)cc3)C(C(=O)O)=CC[C@H]2c2cccc(Cl)c2)cc1
  -5	-0.8	-24	0.2	1.0%	-12
- Cc1ccc(N(CC(=O)O)S(=O)(=O)c2cccc3nonc23)cc1
  4	-5.2	-10	0.3	-1.9%	0
- CC1(c2ccc(C#N)cc2)NC(=O)N(CC(=O)Nc2cc(S(=O)(=O)N3CCOCC3)ccc2Cl)C1=O (stereo unspecified)
  5	-3.2	-3	2.1	-0.2%	4
- CCC(=O)Nc1ccc(Cl)c(NC(=S)NC(=O)COc2ccc(Cl)cc2)c1
  -16	-1.1	-2	0.1	14%	0
- Cc1cc(C)c2c(c1)cc(C)c1nnc(SCC(=O)Nc3cc(C)on3)n12
  2	-1.3	0	1.4	13%[38.3 µM]	-11
- Brc1ccccc1C1=Nn2c(nnc2-c2ccccc2)SC1
  -13	-0.6	-9	-0.6	-1.4%	7
- Nn1c(SCC(=O)NC(=O)NCc2ccccc2)nnc1C1CC1
  -6	0.7	5	-0.2	-0.6%[38.3 µM]	6
- O=c1ccnc(Nc2ccc3c(c2)OCCO3)[nH]1
  -1	-5.6	-1	-0.3	0.6%	9

As a short view, two of the compounds above.
Results follow in this order: D2 PAM	D2 ag	Six1-Eya2 blk	TRPML1 agonist	PINK1 expr mod	TRPML1 inh
- COc1ccccc1C(=O)NCCn1cc(SCC(=O)NCC2CCCO2)c2ccccc21 (stereo unspecified)
  15	3.0	9	0.7	3.5%	1
- CC(C)OC(=O)c1sc2nc3c(cc2c1N)C(=O)CCC3
  -6	-3.7	-1	0.8	-2.3%	20

Following part.
Results follow in this order: D2 PAM	D2 ag	Six1-Eya2 blk	TRPML1 agonist	PINK1 expr mod	TRPML1 inh
- O=S(=O)(c1ccccc1)C(Br)S(=O)(=O)c1ccccc1
  -11	2.5	5	1.1	0.6%	-8
- O=C1c2ccccc2C(=O)N1CCCON1C(=O)c2ccccc2C1=O
  -14	0.6	-13	-0.7	0.1%	-8
- Cc1nn(C)c(C)c1CNC(=O)Nc1cccc(Cl)c1C
  -6	0.4	-9	0.6	1.2%	-11
- O=C1CS/C(=N/N=C/c2ccco2)N1Cc1ccc(F)cc1
  -22	-2.7	-7	0.8	4.1%	-3
- COc1ccc(C(=O)NC(c2ccccc2Cl)c2cc(Cl)c3cccnc3c2O)cc1 (stereo unspecified)
  /	/	/	1.4	21%	25
- CCOc1ccc(C(=O)NCC(=O)N2CCCCCCC2)cc1OCC
  -11	-3.6	5	0.5	-0.7%	-8
- COc1cc(C(=O)N=c2sc3ccccc3n2C)cc(OC)c1OC
  -10	0.7	-1	1.7	-0.1%	20
- CCS(=O)(=O)c1ccc(O)c(NC(=O)COc2ccccc2)c1
  -27	-7.0	-5	0.0	6.4%	6
- O=C1CN(C(=O)COC(=O)[C@@H]2CC(O)CN2S(=O)(=O)c2ccc(Cl)cc2)c2ccccc2N1 (stereo partly specified)
  7	-3.0	4	-0.5	0.8%	-17
- O=C(COc1ccc(F)c(Cl)c1)N1CCCCCCC1
  -6	-0.3	-5	-0.7	0.2%	2
- COCc1cc(C)n(CC(=O)Nc2cccc(C(C)=O)c2)c(=O)c1C#N
  /	/	/	0.3	-0.3%	-7
- COc1cc(OC)cc(C(=O)NNC(=O)c2cc3ccccc3cc2O)c1
  -3	-3.2	-7	3.2	0.8%	4
- Cc1oc(S(=O)(=O)N2CCCCC2)cc1NC(=O)Nc1ccc(F)cc1
  -21	0.0	0	0.1	3.7%	5
- O=C(N/C(=C\c1ccc(Br)cc1)C(=O)N1CCOCC1)c1ccc(Br)o1
  -12	-5.8	1	0.8	-1.1%	-16
- CSc1nc2sc3c(c2c(=O)[nH]1)CCC3
  -27	-3.0	-10	2.0	2.9%	-15
- COCCn1nnnc1CN1CCC(NC(=O)Nc2cccc(OC)c2)CC1
  1	-1.5	10	1.5	-2.1%	4
- O=C(Nc1ccc(F)cc1)[C@H](Cc1ccccc1)N1Cc2ccccc2C1=O
  /	/	/	-0.1	0.0%	-3
- Cc1ccc(C)c(NC(=O)CN2CCCN(Cc3cccc(Cl)c3)S2(=O)=O)c1
  /	/	/	2.0	3.4%	26
- NC(=O)c1ccc(NC(=O)CN2CCN(C(=O)c3ccco3)CC2)cc1
  -1	12	-1	-0.2	-1.1%	18
- Cc1ccc(C#CC(C)(O)C(C)(C)C)cn1 (stereo unspecified)
  -5	-6.0	0	-0.3	1.4%	-7
- CN1C(=O)/C(=C\c2ccc(-c3ccccc3)o2)SC1=S
  -1	-2.1	-9	2.0	13%	-11
- O=C(O)/C=C/C(=O)Nc1ccc(S(=O)(=O)N2CCCC2)cc1
  9	-0.5	2	1.0	0.7%	17
- Cc1ccc(S(=O)(=O)N2CCN(C(=O)NCc3ccc(C(=O)O)cc3)CC2)cc1
  -2	3.4	-5	4.1	-1.5%	-11
- Cc1ccc(S(=O)(=O)CCC(=O)Nc2ccc3c(c2)OCO3)cc1
  2	-0.6	5	0.6	0.0%	-6
- Cn1c(=O)c2c(nc(CN3CCC(Cc4ccccc4)CC3)n2CCN2CCOCC2)n(C)c1=O
  -13	-4.4	-1	-0.2	-1.4%	-7
- Cc1nn(-c2ccccc2)nc1C(=O)OCC(=O)N1CCC(C)CC1
  -2	-0.3	4	0.0	-0.4%	16
- Nc1ncnc2c1ncn2[C@@H]1O[C@H](C(=O)NS(=O)(=O)c2ccccc2[N+](=O)[O-])[C@@H](O)[C@H]1O
  4	-1.0	0	0.4	0.5%	23
- COc1ccc(N2CCN(C(=O)C3COc4ccccc4O3)CC2)cc1 (stereo unspecified)
  -7	1.3	-16	1.3	-0.7%	1
- Cc1cc(C)c(NC(=O)C2CCCN2CCOC(=O)c2ccccc2)c(C)c1 (stereo unspecified)
  0	-3.6	1	1.0	2.4%	26
- O=C(NCc1ccccn1)C(C(=O)c1ccc(F)cc1)n1ccccc1=O (stereo unspecified)
  0	1.1	1	-0.1	-1.3%[38.3 µM]	-17
- Fc1ccc(N2CCN(Cc3nnc(-c4ccccc4)o3)CC2)cc1
  -5	2.0	-9	0.7	0.6%	3
- O=C(Nc1ccc(Br)cc1)c1cccnc1N1CCCCC1
  -8	0.9	6	0.0	11%[38.3 µM]	1
- COc1ccc(-c2oc3ncn4nc(COc5ccccc5)nc4c3c2-c2ccc(OC)cc2)cc1
  -1	-0.9	2	-0.4	-9.0%[38.3 µM]	0
- COc1ccc(/C=C(\C#N)C(=O)Nc2cccc(C)n2)cc1
  -5	-2.8	2	-1.0	4.5%	2
- CCCCN1C2=C(C(=O)CCC2)C(c2ccc(Cl)c(Cl)c2)C2=C1c1ccccc1C2=O (stereo unspecified)
  5	-3.2	-6	1.4	5.0%	6
- COCc1cc(Sc2ccc(Cl)cc2)nc(-c2ccccc2)n1
  -6	-2.2	34	1.5	18%	3
- CCCN(CC(=O)Nc1cc(C)on1)CC(=O)Nc1ccccc1C
  -24	-2.6	3	0.3	4.8%	-16
- CCOC(=O)c1cc(S(=O)(=O)Nc2ccc(OC(F)(F)F)cc2)[nH]n1
  /	/	/	0.1	-0.1%	-7
- Cc1cc(Cl)ccc1C(=O)C1CCCN(C(=O)c2cnn(C(C)C)c2)C1 (stereo unspecified)
  -8	-0.8	1	-1.5	-1.1%	-7
- CC(=O)c1c(C)oc2c1cc(NS(=O)(=O)c1ccc(C(=O)O)cc1)c1ccccc12
  12	3.7	?	-0.5	2.0%	-18
- COCCCNC(=O)/C(C#N)=C/c1cc(C)[nH]c1C
  -5	-6.7	-6	-1.3	7.7%	-2
- CC(=O)C(Sc1ccc2nnc(-c3ccc(C)cc3)n2n1)C(C)=O
  -5	-1.8	-13	-0.8	-0.5%	-7
- COc1cc(C(=O)OCC(=O)NCc2ccc(F)cc2)cc(NC(=O)c2cccs2)c1OC
  4	1.9	-25	-1.3	-1.4%	23
- O=C(CSc1nc2c([nH]c3ccccc32)c(=O)n1-c1ccc(F)cc1)NC1CCCCC1
  /	/	/	0.9	?	12
- Cc1cc(C(=O)N2CCCC(N3CCN(c4ccccc4C)CC3)C2)n(C)n1 (stereo unspecified)
  -15	-2.8	-2	-0.5	-0.4%	-14
- O=C(Cn1c(=O)c2cccn2c2ccccc21)Nc1cc(F)ccc1F
  8	0.7	-1	-0.2&1.3	1.4%&-1.2%	-7&-18
- O=C(NCCCn1ccnc1)c1nc(Cn2cc([N+](=O)[O-])cn2)no1
  0	2.7	4	-1.2	2.3%	17
- CC(C)CNS(=O)(=O)c1cc2c3c(c1)CC(=O)N3CCC2
  -3	1.0	3	3.5	1.3%	7
- Nn1c(SCc2ccc(F)cc2)nnc1-c1ccccn1
  -9	-5.4	-28	-0.4	0.4%	-1
- Cc1ccc(OCCC(=O)OCC(=O)N2CCN(S(=O)(=O)c3ccc(Cl)cc3)CC2)cc1
  -3	2.2	-2	0.0	1.3%	-2
- COc1cc(CN(C)Cc2cccc3ccccc23)cc([N+](=O)[O-])c1O
  -12	-7.7	1	/	-0.3%	/
- O=C(NNC1CC(=O)N(c2ccc(Cl)cc2)C1=O)c1ccco1 (stereo unspecified)
  -9	-2.5	0	0.0	-1.6%	16
